Bioassay records deposited in PubChem BioAssay by several laboratories.
Sa RN4220 lethal = S. aureus RN4220 growth inhibition; OD600, 16 h; inhibition, % (test concentration not listed); actives 0.33% (n = 330,000);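 active = z-score of -3 or lower and OD600 up to 0.18 on both plates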;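 also: plate controls were untreated cells for no effect and reference antibiotic for full effect; stock transfer was 100 nL into about 80 µL; one replicate is shown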
BJeLR viability = kills HRASV12-expressing BJeLR cells; BJeLR (HRASV12) viability, CellTiter-Glo ATP luminescence, 48 h; reference of the scale not given here; inhibition, % (no concentration beside the values); actives 0.17% (n = 300,000);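 active = replicate mean above 50%; inconclusive = above 50% but judged a plate artefact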;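 also: 50 nL library stock added to about 25 µL; numbers are from one replicate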
ugtP null kill = kills S. aureus RN4220 lacking UgtP | S. aureus RN4220 ugtP deletion, OD600 growth, 16 h; some inactives read as strong as hits | AID 1259309 | actives 0.54% (n = 330,000) | growth inhibition, % (no concentration beside the values);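 active = z-score under -3 and OD600 up to 0.15 on both plates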;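 also: plate controls were untreated wells for no effect and antibiotic for full effect; wells of about 80 µL received 100 nL stock; the first replicate is given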
Bead autofluor = compound fluorescence in toxin protease inhibitor counterscreen | AID 624483 | actives 3.1% (n = 360,000) | fluorescence intensity (test concentration not listed) | compound autofluorescence counterscreen, microsphere flow cytometry; stronger effect = higher value;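 active = at least 3 SD above the mean of all compounds, about 16000 in these data; inconclusive = too few beads counted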;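 also: 100 nL of 1 mM stock went into each well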
Mtb hypoxia inh = inhibitors of hypoxia-regulated fluorescent reporter in Mycobacterium tuberculosis. M. tuberculosis hypoxia-regulated fluorescent reporter, fluorescence. fluorescence inhibition, % (test concentration not listed). actives 0.1% (n = 300,000);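 active = 35 to 45% if threefold the growth effect, above 45% if 1.5-fold the growth effect; inactive = the rest, general growth blockers included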;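 also: wells of about 50 µL received 100 nL stock; 0% = vehicle wells and 100% = reference inhibitor wells; whole bacteria with a GFP reporter of the hypoxia response; strong numbers were not always called active; many hits fall short of the cut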
PrP 5UTR inh = suppresses PrP 5' UTR mRNA reporter expression; cell-based PrP 5' UTR mRNA reporter, plate reader; inhibition, % (concentration not given with the values); actives 0.35% (n = 340,000);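 active = every replicate at 50% or more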;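 also: 0 = median of the neutral control wells; tested in H4 reporter cells; numbers are from one replicate; inactives centre near -14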
Mtb hypoxia inh growth = further read-out of Mtb hypoxia inh, marked with its call; growth inhibition, %; measured here: M. tuberculosis growth (absorbance);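 0% = vehicle and 100% = reference antibiotic; read after six days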
* hit, by the source's call; ? = inconclusive; . = not tested or not shown; & = joins results of further samples.

SMILES	Sa RN4220 lethal	BJeLR viability	ugtP null kill	Bead autofluor	Mtb hypoxia inh	Mtb hypoxia inh growth	PrP 5UTR inh
O=C(CCc1nnc(-c2ccc3c(c2)OCO3)o1)NCCc1ccccc1F	3.7	6	3	6149	0	-12	-17
O=C(Nc1nccs1)C(Br)C(Br)c1ccccc1 (configuration not stated)	-2.0	-10	33	4296	4	-1	-47
CC(Cc1ccccc1)C(=O)Nc1ccccc1 (configuration not stated)	7.4	-1	-5	3062	5	10	-20
CCn1c(SCC(=O)N(C(C)C)C(C)C)nnc1-c1cc2ccccc2cc1O	5.2	3	-4	8122	8	12	-16
Cn1cc(C(c2ccccc2OCC(=O)O)c2cn(C)c3ccccc23)c2ccccc21	1.8	5	13	3527	1	-5	-3
COc1ccc(OCCNC(=O)CSc2ccc(C(F)(F)F)cc2[N+](=O)[O-])cc1	4.7	6	-3	6721	7	5	-25
O=P(O)(O)Cc1c(Cl)cccc1Cl	-4.7	1	-4	2373	-18	-4	-13
COc1ccc(OCC(CO)N2CCN(c3ccccc3)CC2)cc1 (configuration not stated)	0.6	.	6	3353	12	9	-33
Cc1c(CCOC(=O)c2cc([N+](=O)[O-])cc([N+](=O)[O-])c2)sc[n+]1CC(=O)c1ccc(Br)cc1	9.1	6	17	2430	3	8	-14
COc1ccc(-c2nc(S(=O)(=O)c3ccccc3)c(NCCCN3CCOCC3)o2)cc1	7.3	.	6	5144	11	13	-14
CC(=O)c1cccc(NC(=O)CSc2nnc(-c3cccnc3)o2)c1	0.7	-2	0	4135	0	1	-6
C[C@H](CO)N1C[C@H](C)[C@@H](CN(C)S(=O)(=O)c2cn(C)cn2)Oc2c(NS(=O)(=O)c3cn(C)cn3)cccc2C1=O	2.1	.	0	4090	3	2	-25
COC(=O)c1ccc(Oc2nc(N3CCCCC3)nc(N3CCOCC3)n2)cc1	2.5	0	11	10845	4	5	-21
COc1ccccc1NC(=O)CCS(=O)(=O)c1ccccc1	7.8	-4	6	6411	1	-1	-27
O=C(CCN1C(=O)c2ccccc2C1=O)N1CCN(C(=O)c2ccccc2)CC1	-1.7	9	6	4516	.	.	-13
COCCNC(=S)Nc1cc(OC)c(OC)cc1C#N	6.0	0	13	4573	6	-1	-32
CC(=O)N1CCN(CC(=O)Nc2ccccc2C(=O)Nc2ccccc2)CC1	4.7	.	6	3452	9	5	6
Cc1cc(Cl)ccc1N(CC(=O)NCCSCc1ccco1)S(C)(=O)=O	4.8	-3	3	5382	2	-3	-10
COc1cc(C=NNC(=O)c2ccncc2)ccc1OC(=O)c1cc(OC)c(OC)c(OC)c1	3.3	.	8	.	3	0	.
CCc1ccn2cc(-c3cc(-c4ccccc4)no3)nc2c1	5.2	8	-12	.	10	6	71*

Reprinted from the listing (2 entries):
SMILES	Sa RN4220 lethal	BJeLR viability	ugtP null kill	Bead autofluor	Mtb hypoxia inh	Mtb hypoxia inh growth	PrP 5UTR inh
O=C(CCc1nnc(-c2ccc3c(c2)OCO3)o1)NCCc1ccccc1F	3.7	6	3	6149	0	-12	-17
O=C(Nc1nccs1)C(Br)C(Br)c1ccccc1 (configuration not stated)	-2.0	-10	33	4296	4	-1	-47

Continuation.
SMILES	Sa RN4220 lethal	BJeLR viability	ugtP null kill	Bead autofluor	Mtb hypoxia inh	Mtb hypoxia inh growth	PrP 5UTR inh
C=CCN1C(=O)N(CC=C)c2cccc3cccc1c23	7.8	-4	-1	3529	6	-3	-17
CCNc1nc(NCC)nc(SCCOC(=O)Nc2ccccc2)n1	-3.3	5	-7	4642	.	.	-1
Cc1ccc(-c2nn(-c3cccc(F)c3)cc2CNCc2cccnc2)o1	1.0	-4	0	13462	-8	-3	5
CCOC(=O)c1ccccc1NC(=O)c1cc2sccc2n1C	3.4	1	2	22752*	8	0	-3
Cn1c(CC(=O)NNC(=O)c2cncc(Br)c2)nc2ccccc21	3.3	.	1	3515	6	0	-36
O=C(O)CN1CCNCC1	6.8	-4	-1	.	-7	10	.
Cc1cccc(C(=O)NC2CCN(C(=O)N3CCOCC3)CC2)c1	2.5	-13	2	3971	14	9	-10
CCN(CC)c1ccc(CN2CCC(C(=O)NCc3ccc(C)cc3)CC2)cc1	-3.5	2	0	3917	2	10	-26
CC(C)CC1C(C#N)=C(N)Oc2n[nH]c(-c3ccccc3)c21 (configuration not stated)	.	-9	.	4040	.	.	-25
CCCCC[C@@H]1C=C(C(=O)O)[C@H](c2ccc(C)cc2)N1S(=O)(=O)c1ccc(C)cc1	19	.	-15	3816	-5	0	-70
O=C(c1cccc2ccccc12)C1CCCN(C(=O)CCc2cnccn2)C1 (configuration not stated)	5.0	8	1	2264	-6	-5	-24
O=C1C2CCCN2C(c2ccccc2F)N1c1ccc(F)cc1 (configuration not stated)	3.7	-7	2	4526	5	8	-15
O=C(O)CSc1nnc(-c2ccc(Cl)cc2Cl)n1Cc1ccccc1	0.9	-3	-4	6052	11	-4	-12
COc1ccccc1-c1oc2ccccc2c1-c1ccc2cc[nH]c2c1	-18	.	62	4111	4	3	-19
O=C(NN=C1CCS(=O)(=O)c2ccc(F)cc21)c1ccc([N+](=O)[O-])cc1	1.8	.	-3	.	-9	-9	.
COc1ccc(-n2c(=S)[nH]c3cc(C(=O)NCc4ccco4)ccc3c2=O)cc1OC	0.3&-5.2	-4	-2&-2	4604&2250	11	2	-9&-16
CCCCCCCn1c(NC(=O)CC)nc2ccccc21	.	-4	.	3502	.	.	11
O=C(O)c1ccc(Nc2nc(-c3ccccc3)c3ccccc3n2)cc1	13	2	11	5063	19	3	-28
Cc1ccc(S(=O)(=O)NCC(c2ccccc2)N2CCCCC2)cc1 (configuration not stated)	4.0	2	1	3384	14	5	-16
Cn1c(SCC(=O)c2cc3ccccc3o2)nnc1-c1ccccc1	9.4	-10	-9	6008	-4	-10	-4

Full records, looked up by structure. Order of screens: Sa RN4220 lethal	BJeLR viability	ugtP null kill	Bead autofluor	Mtb hypoxia inh	Mtb hypoxia inh growth	PrP 5UTR inh
CCNc1nc(NCC)nc(SCCOC(=O)Nc2ccccc2)n1 in the list: -3.3	5	-7	4642	.	.	-1
O=C(O)CN1CCNCC1 in the list: 6.8	-4	-1	.	-7	10	.
CC(C)CC1C(C#N)=C(N)Oc2n[nH]c(-c3ccccc3)c21 (configuration not stated) in the list: .	-9	.	4040	.	.	-25
Cc1ccc(S(=O)(=O)NCC(c2ccccc2)N2CCCCC2)cc1 (configuration not stated) in the list: 4.0	2	1	3384	14	5	-16
CCCCC[C@@H]1C=C(C(=O)O)[C@H](c2ccc(C)cc2)N1S(=O)(=O)c1ccc(C)cc1 in the list: 19	.	-15	3816	-5	0	-70

Continuation.
SMILES	Sa RN4220 lethal	BJeLR viability	ugtP null kill	Bead autofluor	Mtb hypoxia inh	Mtb hypoxia inh growth	PrP 5UTR inh
Cc1ccc(N2CC(C(=O)Nc3ccccc3N3CCCC3)CC2=O)cc1 (configuration not stated)	2.1	0	-2	6068	-1	1	-16
COc1ccc(CC(=O)NCC(=O)N/N=C(/C)c2ccco2)cc1	.	-3	.	4841	.	.	-18
Cc1cnc(C(=O)OCC(=O)N(C(C)C)C(C)C)cn1	2.8	-2	-2	5890	.	.	0
Cc1ccc(NC(=O)C2CCCN2S(=O)(=O)c2ccc3c(c2)n(C)c(=O)c(=O)n3C)cc1C (configuration not stated)	0.5	9	8	5996	2	-3	-25
CC(C)(C)C(=O)Nc1ccc(C(=O)CN2C(=O)NC3(CCOc4ccccc43)C2=O)cc1 (configuration not stated)	1.5	.	3	8509	0	2	-18
COc1cccc(OCc2nc3ncc(Br)cc3[nH]2)c1	1.5	-4	8	12784	9	4	-50
O=C(CN1C(=O)NC2(CCCC2)C1=O)Nc1cc(S(=O)(=O)N2CCCCC2)ccc1Cl	0.7	.	-2	4063	3	4	-10
COc1ccc(OC)c(C=Nn2c(C)nc3ccccc3c2=O)c1	4.3	.	-14	.	4	-1	.
O=C(NC1CCCCC1)C(=NO)c1ccccn1	2.8	.	4	.	9	-2	.
Cc1nc(CNC(=O)c2cc(COc3c(F)cccc3F)on2)cs1	1.8	3	0	4046	7	-1	-1
Cc1ccc(-c2nc(CS(=O)CC(=O)NCc3ccc(Cl)cc3)c(C)o2)cc1 (configuration not stated)	-12	-1	-7	4078	7	7	35
O=S(=O)(c1ccc(Cl)cc1)c1snnc1-c1ccccc1	2.8	96*	0	2387	.	.	-58
O=C(NNC1OC(CO)C(O)C(O)C1O)c1cccnc1 (configuration not stated)	3.5	6	-1	3910	3	11	-35
CCOc1ccc(S(=O)(=O)N2CCC(C(=O)N3CCCC3)CC2)cc1C	3.2	2	4	2928	6	-9	-6
N/C(=N\OC(=O)CCCc1ccccc1)c1ccccc1	7.3	10	9	5251	7	5	-23
Fc1ccc(C=Nn2cnn(Cc3ccccc3Cl)c2=S)cc1	5.6	.	2	.	12	4	.
CC(C)Oc1ccc(N2CC(C(=O)Nc3ccccc3F)CC2=O)cc1 (configuration not stated)	0.2	-1	3	3723	.	.	-22
O=C(c1cccnc1)N1CCN(C(=O)c2cccs2)CC1	-2.1	0	3	2338	.	.	-17
Cc1cccc2cc(CN(CC3CCCO3)C(=O)c3ccco3)c3nnnn3c12 (configuration not stated)	1.4	4	3	.	-18	6	.
CC1CN(C(C)CO)C(=O)c2cccc(NC(=O)Nc3ccccc3)c2OC1CN(C)C(=O)Nc1ccc(C(F)(F)F)cc1 (configuration not stated)	-11	.	5	.	19	10	.
COc1cccc(CNC(=O)Cn2ccc3cc(S(=O)(=O)N4CCCCCC4)ccc32)c1OC	-5.5	1	-3	5938	5	-4	-7
CCOc1ccc(CCNC(=O)COC(=O)c2ccccc2O)cc1OCC	1.3	7	3	4503	16	2	-16
COc1ccc(C)cc1NC(=O)C(Sc1nnc(Nc2cc(C)ccc2OC)s1)c1ccccc1 (configuration not stated)	-0.2	-4	-19	2468	-4	0	4
CSc1ncc(Cl)c(C(=O)C(C#N)c2nc3c(C)cc(C)cc3c(=O)[nH]2)n1 (configuration not stated)	28	2	20	4327	-1	-12	-21
CNC(=O)COC(=O)c1cc(=O)[nH]c2ccccc12	0.5	-6	5	23831*	4	2	-22
Cc1ccc(CNC(=O)CN(c2ccc(Cl)cc2)S(C)(=O)=O)cc1	5.6	-6	7	3889	5	12	-15
Cc1ccc(S(=O)(=O)Nc2ccc(O)c(S(=O)(=O)c3ccc(C)cc3)c2)cc1	1.0	-7	-4	5666	1	-1	-8
CCn1cc(C(=O)Nc2ccc(C)cc2[N+](=O)[O-])c(C)n1	4.0	-1	6	?	4	12	-18
O=C(CCc1ccccc1)Nc1ccc(S(=O)(=O)Nc2nccs2)cc1	4.4	-3	5	3260	.	.	-13
CN(C)CCCN(C(=O)COc1ccccc1)c1nc2c(F)cccc2s1	0.8	22	10	4475	7	13	.
c1ccc(NCCc2ccccn2)cc1	5.7	.	3	3492	20	9	-21
Cc1occc1C(=O)n1nnc2ccccc21	4.1	-6	-10	.	6	9	.
CC#CCN(Cc1ccco1)C(=O)c1ccc(OC2CCN(Cc3ccccn3)CC2)cc1	2.4	-8	4	5633	1	2	-5
CCc1c(C)nc2ncnn2c1N1CCCC(C(=O)NCc2cccs2)C1 (configuration not stated)	5.1	6	8	4352	22	0	-28
CC(C)Oc1ccc(/C(O)=C2/C(=O)C(=O)N(CCN3CCOCC3)C2c2ccccc2)cc1 (configuration not stated)	3.9	2	1	2819	.	.	-19
COC(=O)C1=C(C)NC(=O)NC1c1ccsc1 (configuration not stated)	2.5	-3	1	2367	.	.	-14
CCn1nc(NC(=O)c2cccnc2)c2cc3cccc(C)c3nc21	7.7	-7	-11	3306	6	5	-18
FC(F)(F)c1ccccc1C=Nn1c(COc2ccccc2)n[nH]c1=S	8.3	.	1	.	-3	4	.
COCCN1CC(=O)N2C(c3cccc(C)c3)c3[nH]c4ccccc4c3C[C@H]2C1=O (some centres not stated)	-0.1	-15	3	2914	8	7	-3
[O-]C1=N[N+](=Cc2ccc(Cl)cc2)CC1	4.2	.	4	.	9	3	.
O=S(=O)(c1ccc(-c2cnc(C3CC3)o2)cc1)N1CCN(c2ccccc2)CC1	2.5	-5	-6	5303	-5	1	-18
O=C1NC(=O)N(CCC2=CCCCC2)C(=O)/C1=C/c1cccs1	1.6	10	8	3753	3	-2	.
COC(=O)c1ccccc1NC(=O)c1nc2nc(C)cc(C)n2n1	5.9	10	1	3613	.	.	-30
